Screening results deposited in PubChem by Broad Institute.
FGF22 binding: binders of human FGF22 protein, primary screen, FGF22 synaptogenesis inhibitor project, biophysical, thermal shift, single point | Fibroblast growth factor 22 (Homo sapiens), Q9HCT0 | 340,000 tested, 1.5% active | recombinant FGF22 thermal shift, SYPRO orange fluorescence; percent of sucrose octasulfate shift, DMSO zero | calls only at 9.99 µM;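 active = melting point raised past a set limit in the mean and every replicate; inconclusive = no clear call; three in four hits are not shown here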
Target sequence (Q9HCT0 whole entry, looked up): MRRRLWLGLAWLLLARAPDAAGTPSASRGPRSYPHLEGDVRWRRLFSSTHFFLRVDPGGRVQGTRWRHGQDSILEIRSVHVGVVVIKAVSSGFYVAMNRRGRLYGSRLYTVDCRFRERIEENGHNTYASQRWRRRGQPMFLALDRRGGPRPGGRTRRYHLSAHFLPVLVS
ALR H2O2 inh: inhibitors of human ALR sulfhydryl oxidase, primary screen, biochemical, H2O2 detection, HRP-luminol luminescence, single point; 290,000 tested, 3.8% active; inhibition, % (concentration not given with the values); purified ALR, DTT oxidation; AID 485317, 2010;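 active = mean and each replicate at 75% or more; inconclusive = only one of the two met; inactive = neither met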;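 note: stock transfer was 7.5 nL into about 7.5 µL; 0% = neutral wells and 100% = wells with inactivated enzyme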
Target sequence (P55789 whole entry, looked up): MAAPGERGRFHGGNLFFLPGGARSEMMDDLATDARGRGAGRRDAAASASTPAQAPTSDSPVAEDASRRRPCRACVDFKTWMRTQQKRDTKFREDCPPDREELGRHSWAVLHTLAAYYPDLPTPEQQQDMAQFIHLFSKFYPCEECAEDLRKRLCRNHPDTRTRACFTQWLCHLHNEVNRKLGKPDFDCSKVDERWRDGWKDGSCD
AF4-AF9 inh: inhibitors of AF4 peptide binding to AF9, primary screen, biochemical, AlphaScreen, biotin-AF4 peptide, FLAG-AF9, single point | Protein AF-9 (Homo sapiens), P42568 | inhibition, % at 10 µM | 350,000 tested, 0.47% active | AID 651704, 2012;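 active = every replicate reaching a set inhibition limit, whatever the replicate mean, cut at about 25% in these data; inconclusive = mean inhibition reaches that limit but some replicates miss it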;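 note: 0% = plate neutral control median and 100% = total signal loss; the record names both 10 and 1 µM as test concentration; the first replicate is given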
Target sequence (P42568 whole entry, looked up): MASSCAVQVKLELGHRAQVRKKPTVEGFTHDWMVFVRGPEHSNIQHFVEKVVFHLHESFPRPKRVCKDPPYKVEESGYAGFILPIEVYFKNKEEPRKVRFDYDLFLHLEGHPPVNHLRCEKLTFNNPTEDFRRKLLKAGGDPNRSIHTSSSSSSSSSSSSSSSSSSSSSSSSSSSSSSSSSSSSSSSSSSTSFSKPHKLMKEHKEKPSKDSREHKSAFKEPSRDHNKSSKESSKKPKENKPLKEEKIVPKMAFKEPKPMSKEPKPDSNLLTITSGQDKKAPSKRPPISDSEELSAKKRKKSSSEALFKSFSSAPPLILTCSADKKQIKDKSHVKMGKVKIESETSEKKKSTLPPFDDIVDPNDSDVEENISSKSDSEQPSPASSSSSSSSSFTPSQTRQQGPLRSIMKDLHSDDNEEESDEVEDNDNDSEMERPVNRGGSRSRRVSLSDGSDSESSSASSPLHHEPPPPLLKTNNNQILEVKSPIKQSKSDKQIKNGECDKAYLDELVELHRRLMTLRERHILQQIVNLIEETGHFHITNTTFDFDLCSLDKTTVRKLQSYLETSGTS
T cruzi inh: inhibitors of intracellular T. cruzi growth, primary screen, luminescence, NIH3T3 host cells. inhibition, % (concentration not given with the values). 300,000 tested, 1.4% active. T. cruzi beta-gal in NIH3T3, 90 h;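 active = mean inhibition across valid replicates above about 55%, limit read from the data; inconclusive = mean below that limit but half or more replicates reach it; inactive = mean below it, under half of replicates reach it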;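 note: signal also drops with host cell toxicity which is not excluded here; 0% = plate median of DMSO wells and 100% = zero luminescence signal; higher percent means less beta-gal luminescence so fewer parasites; stock transfer was 50 nL into about 50 µL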
Ecoli rRNA inh: reduced GFP signal of wild-type E. coli, primary screen, bacterial rRNA inhibitor project, GFP/RFP fluorescence, OD600, single point; E. coli WT GFP vs humanized-ribosome RFP mutants, 24 h; active compounds read low; DMSO median 0, no signal -100; GFP signal change (wild-type ribosome), % (concentration not given with the values); 350,000 tested, 1.6% active;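 active = significant combined selectivity score with lowered wild-type GFP, culture density cut under 30%, mutant RFP and density less affected; inactive = any of these conditions unmet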; note: one replicate is shown; some compounds called inactive have numbers as strong as hits
Beta apoptosis: inhibitors of cytokine-induced beta cell apoptosis, primary screen, luminescence; INS-1E cytokine-induced death, ATP luminescence, 48 h; percent of positive-control rescue, neutral wells zero; protection from apoptosis, % (no concentration beside the values); 300,000 tested, 0.8% active; AID 435005, 2010;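 active = all replicates at 75% or more, or half of them and the mean; inconclusive = half reach 75% but not the mean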;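 note: 0% = cytokine-treated negative control wells and 100% = positive control rescue; higher means more ATP so stronger rescue from cytokine killing; wells of about 40 µL received 100 nL stock; the first replicate is given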
Calb FLC: C. albicans growth inhibition with fluconazole, primary screen, CaCi-2 strain, Alamar Blue fluorescence. C. albicans CaCi-2 (fluconazole-resistant clinical isolate) + fluconazole, 48 h. growth inhibition, % (concentration not given with the values). 300,000 tested, 0.57% active;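 active = most replicates above 75%; inconclusive = exactly half above 75%; inactive = most below 75%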;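 note: all wells also contain fluconazole at 8 µg/ml as a sub-toxic cotreatment; 0% = median of DMSO wells and 100% = median of geldanamycin control wells; wells of about 8 µL received 7.5 nL stock; the first replicate is given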
RanGTP-Impb inh: inhibitors of RanGTP-importin-beta interaction, primary screen, biochemical, FRET, CFP-Ran, YFP-importin-beta, homogeneous; inhibition, % (test concentration not listed); Ran GTPase (GTP-bound) - importin-beta complex; cell-free CFP-Ran/YFP-importin-beta FRET ratio; AID 2216, 2009; 300,000 tested, 1.1% active;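 active = most replicates above 15%; inconclusive = exactly half above 15%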;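 note: 0% = DMSO wells and 100% = Ran loaded with GDP instead of GTP; wells of about 40 µL received 100 nL stock; the first replicate is given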
Ecoli rRNA inh OD600: further read-out of Ecoli rRNA inh, marked with its call; OD600 change, %; measured here: OD600 growth;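 optical density of the mix in the first replicate; 0 = DMSO median and -100 = no signal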
Ecoli rRNA inh RFP: recorded beside Ecoli rRNA inh, whose call it bears; RFP signal change, %; measured here: RFP humanized mutant strains;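 first replicate; 0 = DMSO median and -100 = no signal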
* marks the source's active call; other numbers are inactive results.

How did CN(C)CCOC(=O)Cc1ccc(Cl)cc1 do in these assays?
ALR H2O2 inh: -19; T cruzi inh: 8; Ecoli rRNA inh: 6; Beta apoptosis: -1; Calb FLC: -1; RanGTP-Impb inh: -1.9; Ecoli rRNA inh OD600: 0; Ecoli rRNA inh RFP: -9.2

How did CCC(C)(C)C1CCc2c(sc(NC(=O)c3ccccc3C(=O)O)c2C#N)C1 (stereo not given) do in these assays?
ALR H2O2 inh: 63; AF4-AF9 inh: 4.2; T cruzi inh: -5; Beta apoptosis: -11; Calb FLC: 34; RanGTP-Impb inh: -2.5

How did Nc1nnc(SCc2cc3c(cc2Cl)OCO3)s1 do in these assays?
T cruzi inh: -1; Beta apoptosis: -8; Calb FLC: inconclusive; RanGTP-Impb inh: 1.7

What do the screens show for `O=C(NCc1ccccc1)c1ccc(-c2ccccc2C(F)(F)F)o1`?
FGF22 binding: inactive; AF4-AF9 inh: -2.4; T cruzi inh: -17; Ecoli rRNA inh: -30; Beta apoptosis: 1; Calb FLC: 8; RanGTP-Impb inh: -0.3; Ecoli rRNA inh OD600: -55; Ecoli rRNA inh RFP: -5.2

Results for Cc1c(NC(=O)Nc2cc(F)c(F)cc2Cl)c(=O)n(-c2ccccc2)n1C ?
FGF22 binding: inactive; ALR H2O2 inh: 7; T cruzi inh: -12; Ecoli rRNA inh: 4; Beta apoptosis: -7; Calb FLC: -5; RanGTP-Impb inh: 0.3; Ecoli rRNA inh OD600: 10; Ecoli rRNA inh RFP: -1.1

Results for Cn1cnnc1SCC(=O)NC(=O)NC1CCCC1 ?
ALR H2O2 inh: -2; T cruzi inh: -5; Beta apoptosis: -8; Calb FLC: 27; RanGTP-Impb inh: 4.2

Results for O=C(NCCCN1CCCC1=O)c1ccc2c(c1)ncn2C1CCCCC1 ?
FGF22 binding: inactive; AF4-AF9 inh: 2.8; T cruzi inh: -13; Ecoli rRNA inh: 2; Beta apoptosis: -3; Calb FLC: -8; RanGTP-Impb inh: 0.8; Ecoli rRNA inh OD600: -6; Ecoli rRNA inh RFP: 1.8

What do the screens show for `O=C(NNS(=O)(=O)c1ccc(F)c(Cl)c1)c1cccc(S(=O)(=O)N2CCOCC2)c1`?
ALR H2O2 inh: 40; T cruzi inh: -2; Calb FLC: 1; RanGTP-Impb inh: -1.0

Results for COc1ccc(C(=O)OCC(=O)NC(=O)NC2CCCC2)c(OC)c1 ?
FGF22 binding: inactive; ALR H2O2 inh: 4; AF4-AF9 inh: -2.4; T cruzi inh: 2; Ecoli rRNA inh: -9; Beta apoptosis: -12; Calb FLC: -12; RanGTP-Impb inh: 2.2; Ecoli rRNA inh OD600: 0; Ecoli rRNA inh RFP: 5.0

Results for CS(=O)(=O)N1CCn2c1nc1ccccc12 ?
FGF22 binding: inactive; ALR H2O2 inh: -4; AF4-AF9 inh: -1.1; T cruzi inh: -12; Ecoli rRNA inh: -7; Beta apoptosis: -4; Calb FLC: -26; RanGTP-Impb inh: 1.9; Ecoli rRNA inh OD600: -9; Ecoli rRNA inh RFP: -3.5

What do the screens show for `Cc1cccc(N2C(N)=C(C#N)C(C#N)(C#N)C2c2ccccc2)c1` (stereo not given)?
ALR H2O2 inh: 37; T cruzi inh: -2; Calb FLC: 9; RanGTP-Impb inh: 1.5

What do the screens show for `CCN(CC)c1ccc(/C=N/OC(C)C(=O)Nc2ccc(C)cc2)cc1` (stereo not given)?
T cruzi inh: -10; Beta apoptosis: -7; Calb FLC: 1; RanGTP-Impb inh: -2.8

Results for COc1ccc(N(C(=O)/C=C/c2ccc(OC)c(OC)c2)C2=CC3CCC(C2)N3C)cc1 (stereo not given) ?
FGF22 binding: inactive; ALR H2O2 inh: -7; AF4-AF9 inh: -4.1; T cruzi inh: 7; Ecoli rRNA inh: -10; Beta apoptosis: -3; Calb FLC: -10; RanGTP-Impb inh: 0.5; Ecoli rRNA inh OD600: -2; Ecoli rRNA inh RFP: -1.8

How did Cn1cc(C=C2C(=O)OC3(CCCCC3)OC2=O)c2ccccc21 do in these assays?
FGF22 binding: inactive; ALR H2O2 inh: 32; AF4-AF9 inh: 26*; T cruzi inh: -17; Ecoli rRNA inh: 9; Beta apoptosis: -4; Calb FLC: -2; RanGTP-Impb inh: 4.0; Ecoli rRNA inh OD600: 3; Ecoli rRNA inh RFP: 11

What do the screens show for `CCC1Oc2ccccc2N(CC(=O)NCCCN2CCCC2)C1=O` (stereo not given)?
FGF22 binding: inactive; ALR H2O2 inh: -3; AF4-AF9 inh: -2.9; T cruzi inh: -9; Ecoli rRNA inh: 4; Beta apoptosis: -5; Calb FLC: 0; RanGTP-Impb inh: 1.1; Ecoli rRNA inh OD600: 2; Ecoli rRNA inh RFP: -2.7

Results for Cc1cc(C(=O)CSc2nnnn2-c2ccccc2)c(C)n1-c1ccc2c(c1)OCO2 ?
FGF22 binding: inactive; ALR H2O2 inh: -14; AF4-AF9 inh: -0.1; T cruzi inh: 28; Ecoli rRNA inh: -5; Beta apoptosis: 10; Calb FLC: 0; RanGTP-Impb inh: -0.7; Ecoli rRNA inh OD600: -14; Ecoli rRNA inh RFP: -14

Results for CCOc1ccc(NC(=O)CSc2nnc(NC(=O)C3CC3)s2)cc1 ?
FGF22 binding: inactive; ALR H2O2 inh: -3; AF4-AF9 inh: 0.4; T cruzi inh: 9; Ecoli rRNA inh: 2; Beta apoptosis: 5; Calb FLC: -1; RanGTP-Impb inh: -0.2; Ecoli rRNA inh OD600: 7; Ecoli rRNA inh RFP: -0.7

How did CN1CCN(NC(=O)c2cccc(S(=O)(=O)N3CCCCCC3)c2)CC1 do in these assays?
FGF22 binding: inactive; AF4-AF9 inh: -7.0; T cruzi inh: -2; Ecoli rRNA inh: 11; Beta apoptosis: -8; Calb FLC: -1; RanGTP-Impb inh: -1.3; Ecoli rRNA inh OD600: 9; Ecoli rRNA inh RFP: -1.0

What do the screens show for `COc1cc(OC)c(OC)cc1/C=N/n1c(C)nc2ccccc2c1=O`?
FGF22 binding: inactive; ALR H2O2 inh: -11; AF4-AF9 inh: 2.2; T cruzi inh: -3; Ecoli rRNA inh: 3; Beta apoptosis: -2; Calb FLC: 7; RanGTP-Impb inh: -3.0; Ecoli rRNA inh OD600: 5; Ecoli rRNA inh RFP: -1.4

What do the screens show for `Cc1ccc(NC(=O)CCC(=O)N/N=C/c2ccc(O)cc2O)cc1`?
FGF22 binding: inactive; ALR H2O2 inh: 19; AF4-AF9 inh: 1.6; T cruzi inh: 2; Ecoli rRNA inh: -12*; Beta apoptosis: 11; Calb FLC: 4; RanGTP-Impb inh: -3.3; Ecoli rRNA inh OD600: 9.4*; Ecoli rRNA inh RFP: 2.1*

How did CSc1nc2ccc(NC(=O)NC(=O)c3c(F)cccc3F)cc2s1 do in these assays?
FGF22 binding: inactive; ALR H2O2 inh: -10; AF4-AF9 inh: 0.9; T cruzi inh: -6; Ecoli rRNA inh: 3; Beta apoptosis: 0; Calb FLC: 45; RanGTP-Impb inh: 1.8; Ecoli rRNA inh OD600: 34; Ecoli rRNA inh RFP: -3.0

How did COc1ccc(NC(=S)N(CCCN2CCOCC2)C(C)c2cc3cccc(OC)c3o2)cc1 (stereo not given) do in these assays?
FGF22 binding: inactive; ALR H2O2 inh: 1; AF4-AF9 inh: 13; T cruzi inh: 12; Ecoli rRNA inh: 4; Beta apoptosis: 3; Calb FLC: -6; RanGTP-Impb inh: 3.2; Ecoli rRNA inh OD600: 5; Ecoli rRNA inh RFP: 1.3

How did CCc1nc(SCC(=O)Nc2ccc(N(C)C)cc2)c2ccccc2n1 do in these assays?
FGF22 binding: inactive; ALR H2O2 inh: 58; AF4-AF9 inh: -7.5; T cruzi inh: 9; Ecoli rRNA inh: 2; Beta apoptosis: 4; Calb FLC: 5; RanGTP-Impb inh: -1.6; Ecoli rRNA inh OD600: 2; Ecoli rRNA inh RFP: 0.5

Results for CCOC(=O)c1c(NC(=O)CSc2nc3c(c(=O)n(C)c(=O)n3C)n2C(C)C)sc(C)c1C ?
ALR H2O2 inh: -27; T cruzi inh: -8; Beta apoptosis: -7; Calb FLC: -2; RanGTP-Impb inh: -0.1

How did CCC1CCc2c(sc(NC(=O)c3ccco3)c2C(N)=O)C1 (stereo not given) do in these assays?
ALR H2O2 inh: -4; T cruzi inh: 14; Beta apoptosis: 1; Calb FLC: 28; RanGTP-Impb inh: 2.7

How did C#CCOCCOCCOCCNc1nc(N2CCN(C(=O)CCCCCCCCCCNC(=O)Cn3cc(C[C@@H](C)O)nn3)CC2)nc(N2CCN(C(=O)CCCCCCCCCCNC(=O)[C@H](CCCCN)n3cc(CCCC(=O)O)nn3)CC2)n1 do in these assays?
FGF22 binding: inactive; ALR H2O2 inh: -31; AF4-AF9 inh: 5.4; Ecoli rRNA inh: 12; Beta apoptosis: 1; Ecoli rRNA inh OD600: 3; Ecoli rRNA inh RFP: 28

How did O=C1CC[C@H](O)CCN1CCSc1ccc(Br)cc1 do in these assays?
FGF22 binding: inactive; ALR H2O2 inh: -2; AF4-AF9 inh: 1.7; Ecoli rRNA inh: 4; Beta apoptosis: 4; Ecoli rRNA inh OD600: 8; Ecoli rRNA inh RFP: 1.0

How did COc1cccc(CCC(=O)N(C)C2CCCN(Cc3ccccc3F)C2)c1 (stereo not given) do in these assays?
FGF22 binding: inactive; AF4-AF9 inh: 0.2; T cruzi inh: 13; Ecoli rRNA inh: 0; Calb FLC: 4; RanGTP-Impb inh: -7.2; Ecoli rRNA inh OD600: 0; Ecoli rRNA inh RFP: -0.1

How did Nc1nnc(SCc2c(F)cccc2Cl)s1 do in these assays?
FGF22 binding: inactive; ALR H2O2 inh: -2; AF4-AF9 inh: 2.8; T cruzi inh: 2; Ecoli rRNA inh: -7; Beta apoptosis: -7; Calb FLC: 0; RanGTP-Impb inh: -5.2; Ecoli rRNA inh OD600: -2; Ecoli rRNA inh RFP: -1.7

How did COc1ccc(CCCC(=O)N/N=C/c2cccc(OC)c2O)cc1C do in these assays?
FGF22 binding: inactive; AF4-AF9 inh: 3.4; T cruzi inh: -13; Beta apoptosis: -1; Calb FLC: 1; RanGTP-Impb inh: 3.7

Results for COc1cccc2sc(N(CCCN(C)C)C(=O)CCS(=O)(=O)c3ccccc3)nc12 ?
FGF22 binding: inactive; ALR H2O2 inh: 54; AF4-AF9 inh: 11; T cruzi inh: -3; Ecoli rRNA inh: 8; Beta apoptosis: -4; Calb FLC: -9; RanGTP-Impb inh: -2.3; Ecoli rRNA inh OD600: 11; Ecoli rRNA inh RFP: 1.7

How did COc1cc(/C=C/C(=O)OCC(=O)c2ccc[nH]2)cc(OC)c1OC do in these assays?
FGF22 binding: inactive; ALR H2O2 inh: -1; AF4-AF9 inh: -0.9; Ecoli rRNA inh: -1; Beta apoptosis: 4; Ecoli rRNA inh OD600: 3; Ecoli rRNA inh RFP: 2.8

An excerpt; rates above refer to the full screens.
